From PubChem
HPGD block: inhibitors of human 15-hydroxyprostaglandin dehydrogenase (HPGD) | P15428 | purified HPGD, NADH fluorescence kinetic, PGE2 substrate | Potency, µM, inactives show at the highest dose activity change, negative = inhibition, most hits filed as inhibitors | 4.3% of 150,000 active | AID 894; active = well fitted inhibition curve with a large enough effect (not every such curve was filed as active); inconclusive = small, poorly fitted or top-dose-only effect, or another doubt; inactive = no such curve, though single readings can be large or run the other way;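 further: top concentration of the series not given in the record; plate controls included wells without enzyme; inactives centre near -10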
Target sequence (P15428 whole entry, looked up): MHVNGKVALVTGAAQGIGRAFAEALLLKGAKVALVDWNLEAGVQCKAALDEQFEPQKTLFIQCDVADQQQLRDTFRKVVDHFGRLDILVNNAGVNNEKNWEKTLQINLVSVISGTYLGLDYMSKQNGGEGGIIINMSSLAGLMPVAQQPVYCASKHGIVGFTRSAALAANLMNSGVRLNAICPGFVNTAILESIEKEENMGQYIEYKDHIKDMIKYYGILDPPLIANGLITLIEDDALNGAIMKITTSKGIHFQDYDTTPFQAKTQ
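NADH formation kinetics: reaction with 30 uM PGE2 and 1 mM NAD+ (final), 20 nM enzyme, Tris-HCl pH 8 with Tween 20, after 15 min compound preincubation at room temperature. Fluorescence change, last versus first of five reads.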
* = called active by the depositor; ? = inconclusive; & = joins results of further samples. On the % scale 0 is the no-effect control and ±100 the full control effect; potency means the concentration at half of the fitted maximal effect. An excerpt (hit frequency here may not be typical).

Compound	HPGD block
CCOc1ccc(Cc2nc(C)c(CC(=O)N3CCCCC3)c(=O)[nH]2)cc1	-1.6%
Cc1ccc(C)c(NC(=O)Cc2nc(CCl)cs2)c1	-7.5%
CC(C)OCCCn1c(SCC(=O)N2CCc3ccccc32)nc2ccccc2c1=O	-7.6%
CCCCn1c(SCC(=O)Nc2ccc3c(c2)OCO3)nc2c1c(=O)n(C)c(=O)n2C	-12.0%
CN1C(=O)C(O)(C2COC(C)(C)CC2=O)c2ccccc21 (configuration not stated)	-4.1%
CN(C)CCOC(=O)C1(c2ccccc2)CCOCC1	-2.8%&-6.4%
COC(=O)c1cc(Br)c(=O)n(-c2ccc(C(C)=O)cc2)c1	-16.1%
Cc1ccc2nc3c(cc(C(=O)NCC4CCCO4)c(=N)n3CCCOC(C)C)c(=O)n2c1 (configuration not stated)	?

More results
Compound	HPGD block
O=C(O)c1cnn(-c2ccccc2)c1-n1cccc1	-4.8%
COC(C(=O)NCc1ccccc1C)c1ccccc1 (configuration not stated)	-8.9%
CC(O)CNc1cc(N)c([N+](=O)[O-])cc1[N+](=O)[O-] (configuration not stated)	-19.2%
O=C(NCCN1CCOCC1)c1cc(Sc2cccc(Cl)c2)nc2ccccc12	-1.7%
Cc1ccc(C)c(NC(=O)CSc2nnc(-c3ccccc3)o2)c1	-7.9%
CCOC(=O)c1[nH]c2ccc(C)cc2c1N	-24.8%
CCC(CC)C(=O)NCCc1cc2ccc(C)cc2[nH]c1=O	?
Cc1ccc(C(=S)NCS(=O)(=O)c2ccc(C)cc2)cc1	-11.7%

Next entries follow.
Compound	HPGD block
CCOC(=O)c1cc(C(C)(C)C)oc1CNC(=O)c1c(C)oc2c1CCCC2	-22.7%
Cc1c(C(=O)OCC(=O)c2c(N)n(CC(C)C)c(=O)n(C)c2=O)oc2ccccc12	-13.8%
CCCCS(=O)(=O)c1sc2nc3c(cc2c1N)CCCC3	?
Cc1ccc(C(CC(=O)O)C2CCOC(C)(C)C2)cc1 (configuration not stated)	-6.9%
COc1ccc(-n2c(Cn3nnc4ccccc43)nnc2SCC(=O)O)cc1	-15.8%
CC(C)c1nnc(N2C(=O)c3oc4ccccc4c(=O)c3C2c2ccco2)s1 (configuration not stated)	-10.6%
NC(=O)C1CCN(C(=O)COc2cccc3ccccc23)CC1	-25.6%
CCCn1nnnc1NC(=O)c1cc(Cl)ccc1Cl	-14.6%

Of the compounds above, these contain a Cl atom:
Compound	HPGD block
Cc1ccc(C)c(NC(=O)Cc2nc(CCl)cs2)c1	-7.5%
O=C(NCCN1CCOCC1)c1cc(Sc2cccc(Cl)c2)nc2ccccc12	-1.7%
CCCn1nnnc1NC(=O)c1cc(Cl)ccc1Cl	-14.6%

Later entries.
Compound	HPGD block
COc1ccc(Nc2nnc(SCC(=O)/C=C3/N(C)c4ccccc4C3(C)C)s2)cc1	-9.0%
Cn1c(CO)cnc1SCc1c(Cl)cccc1Cl	-3.1%
CC1(C(=O)NCc2ccccc2)Oc2ccccc2NC1=O (configuration not stated)	0.3%
Cc1ccc(/C=N/n2nnnc2N)o1	-13.7%
COC(=O)NC(CCc1ccccc1)C(C(C)=O)C(=O)OC (configuration not stated)	-4.0%
CN1C(=O)N(c2ccccc2)C(Nc2nncs2)C1(C)C (configuration not stated)	-7.4%
COc1ccc(C(=O)N2CCC3(CC2)CN(Cc2ccc(C#N)cc2)C3)cc1	-8.6%
O=C(Nc1ccccc1-c1nc2ccccc2s1)c1cccnc1Cl	?

(cont.)
Compound	HPGD block
CSc1nc2[nH]ncc2c(=O)n1-c1ccccc1	-5.7%
CC(C)=CCc1c(O)cc2oc(C)cc(=O)c2c1O	4.47µM*
Cc1ccc(S(=O)(=O)NC(=O)Nc2cc(C)ccc2F)cc1	-4.3%
COc1cc(/C=N/NC(=O)CNC(=O)c2ccc3c(c2)OCCO3)ccc1O	-8.9%
CCCCN(CCCC)S(=O)(=O)c1ccc(NS(=O)(=O)c2ccc(NC(C)=O)cc2)cc1	-4.5%
COc1ccc(NC(=O)c2ccco2)c(NC(=O)Cc2cccs2)c1	-1.2%
CCOc1ccc(/C(O)=C2/C(=O)C(=O)N(CC3CCCO3)C2c2cccs2)cc1 (configuration not stated)	-4.0%
COc1ccc(/C=N/Nc2nc(N3CCCC3)nc(N3CCCC3)n2)cc1	-12.0%

Following part:
Compound	HPGD block
CNC(=O)c1nn(-c2ccc(Cl)cc2)ccc1=O	-23.3%
Cc1nc(-c2ccccc2)cc(N2CCCC2)n1	-7.1%
O=C(c1ccc(Br)cc1)c1cc(-c2ccccn2)c(N2CCOCC2)s1	-8.4%
Cn1c(=O)c2c(ncn2CC(COCc2ccccc2Cl)OCc2ccccc2Cl)n(C)c1=O (configuration not stated)	-4.4%
CCOC(=O)c1cnc(-n2nc(C)cc2C)nc1N(CC)CC	-3.8%
O=C(NC1CCCCC1)C(c1ccccc1)N1CCCC1 (configuration not stated)	-8.7%
N#CC1=C(N)Oc2cc(O)ccc2C1c1ccccc1 (configuration not stated)	-3.1%
COc1ccc(N2CCN(S(=O)(=O)c3ccc4c(c3)CCCC4)CC2)c([N+](=O)[O-])c1	-12.9%

Going on with the list:
Compound	HPGD block
CC(=O)c1ccc(OCc2ccccc2)c(C)c1O	-2.3%
CC(=O)Nc1ccc(Nc2ccc(N3C(=O)CCCC3=O)cc2[N+](=O)[O-])cc1	-17.5%
CC(=O)Nc1ccc(Nc2c([N+](=O)[O-])cc(S(C)(=O)=O)cc2[N+](=O)[O-])cc1	-13.9%
Cc1c(Cl)cccc1NC(=O)c1ccc(OCC(=O)NCc2ccccc2)cc1	-15.8%
CCOC(=O)c1c[nH]c2c(Cl)c(Cl)ccc2c1=O	-25.0%
CCOc1ccc(N=Cc2c(C)[nH]n(-c3nc4ccccc4[nH]3)c2=O)cc1	-25.8%
COc1ccc(N2CCN(C(=O)COc3ccccc3)CC2)cc1	-7.6%
N#Cc1nc(COc2ccc(-c3ccccc3)cc2)oc1NCc1cccnc1	-11.7%

(more compounds)
Compound	HPGD block
Cc1ccc(NC(=S)NCCc2ccc(F)cc2)c(C)c1	-1.1%
COC(=O)c1cc2occc2n1CC(=O)Nc1ccc(OC)c(OC)c1OC	1.6%
CCOc1ccc(NS(=O)(=O)c2ccc(NC(=S)NC(=O)CC(C)C)cc2)cc1	-9.3%
COc1nnc(-c2ccc(N3CCCCC3)c(NC(C)=O)c2)c2ccccc12	-3.8%
CC12CCC(=O)N1C(C(=O)Nc1cccc3ccccc13)CS2 (configuration not stated)	-6.3%
CCOC(=O)C1C(=O)CC(C)(O)C(C(=O)OCC)C1c1ccc(N(CC)CC)cc1 (configuration not stated)	7.1%
C/C(=N\NC(=O)c1cc2c(s1)CCC(C)C2)c1ccncc1 (configuration not stated)	-10.8%
COc1ccc(C(=O)N/N=C/c2sc3ccccc3c2O)cc1	-6.3%

(further entries)
Compound	HPGD block
COc1ccccc1-n1cnc2cc(NCc3cccs3)ccc21	?
O=C(CSc1ccc2nnc(-c3ccncc3)n2n1)Nc1ccccc1F	-2.9%
O=C(CSCC(=O)c1ccccc1)Nc1ccccc1Cl	?
CCOC(=O)C1=C(C)N(c2ccc(C)c(C)c2)C(=O)/C1=C\c1ccco1	-12.1%
CN(C)S(=O)(=O)c1ccc(N2CCCC2)c(C(=O)Nc2nc3ccccc3s2)c1	-24.4%
COc1ccc(OCCCC(=O)Nc2ccc3c(c2)OCCO3)cc1	-20.1%
CCCOc1ccc(C(=O)NCCO)cc1	-8.4%
COc1ccc(/C=N/NC(=O)Cc2csc(Nc3cccc(C(F)(F)F)c3)n2)c(OC)c1	-15.8%

(list continues)
Compound	HPGD block
COCC(=O)N1CCC2(CC1)CN(Cc1ccccc1OC)C2	-11.4%
CC(C)[C@@H](CC(=O)N[C@@H]1CCCC[C@H]1C(=O)N[C@H](CC(=O)N[C@@H](CCC(=O)O)CC(=O)O)Cc1ccccc1)NC(=O)C[C@H](Cc1ccccc1)NC(=O)[C@@H]1CCCC[C@H]1N	-3.8%
Cc1nc(N)nc(-c2ccccc2O)n1	-14.7%
CCN1CCN(CC(=O)n2c3c(c4ccccc42)CC(C)CC3)CC1 (configuration not stated)	-18.3%
O=C(c1ccc2nc(N3CCCCC3)sc2c1)N1CCN(c2ccccn2)CC1	?
Cc1ccc(/C=N/c2sc3c(c2C#N)CCC3)o1	15.8µM*
COC(=O)C(NC(C)=O)(Nc1nc2ccc(S(C)(=O)=O)cc2s1)C(F)(F)F (configuration not stated)	-7.8%
COc1cc(CC(=O)Nc2nccs2)cc(OC)c1OC	-11.2%

Four of the entries above in order of the HPGD block value, highest first.
Compound	HPGD block
COC(=O)C(NC(C)=O)(Nc1nc2ccc(S(C)(=O)=O)cc2s1)C(F)(F)F (configuration not stated)	-7.8%
COc1cc(CC(=O)Nc2nccs2)cc(OC)c1OC	-11.2%
Cc1nc(N)nc(-c2ccccc2O)n1	-14.7%
CCN1CCN(CC(=O)n2c3c(c4ccccc42)CC(C)CC3)CC1 (configuration not stated)	-18.3%

Following part
Compound	HPGD block
CCOC(=O)c1c(C)[nH]c(C(=O)CSc2nccc(C)n2)c1C	-13.8%
CC(C)OCP(=O)(c1ccccc1)c1ccccc1	-2.5%
Cc1cc(C)c(NC(=O)CC(C)(C)C)c(Cl)c1	-12.1%
COc1ccc(C(=O)c2sc3nc(C)cc(-c4cccs4)c3c2N)cc1OC	-11.2%
COC(=O)Nc1ccccc1C(=O)N1CCCCC1	-18.9%
CCCCN1C(=O)C2C3C=CC(C2C1=O)C1C2C(=O)N(CCCC)C(=O)C2C31 (configuration not stated)	-8.2%
CCOC(=O)N1CCN(C(=O)c2cnn(-c3ccccc3)c2NC(=O)c2ccccc2F)CC1	-8.7%
C=CCNC(=O)c1nc2ccccc2s1	-22.9%

Going on with the list:
Compound	HPGD block
Cc1cc(N2CCCC2=O)cc(C)c1S(=O)(=O)NCCOc1ccccc1	-13.4%
N#Cc1cc([N+](=O)[O-])cnc1Nc1ccccc1	-16.2%
C#CCOCCOCCOCCNc1nc(N2CCN(C(=O)Cn3cc(CC(C)O)nn3)CC2)nc(N2CCN(C(=O)[C@H]([C@@H](C)CC)n3cc(CCCN=C(N)N)nn3)CC2)n1 (some centres not stated)	-2.4%
CCC(C)Sc1nc2c(cnn2-c2ccc(C)cc2)c(=O)[nH]1 (configuration not stated)	-12.8%
COc1cc(C2C(C(C)=O)=C(O)C(=O)N2c2ccc(Br)cn2)ccc1O (configuration not stated)	-15.9%
COc1ccc(C(=O)NCCCN2CCOCC2)cc1OC	-1.6%
COc1ccc(NC(=O)c2cc(-c3ccc(OC)c(OC)c3)on2)cc1OC	-24.8%
CC(C)C[C@@H](CC(=O)N[C@@H](CCC(=O)O)CC(=O)O)NC(=O)[C@@H]1CNCC[C@H]1NC(=O)C[C@@H](NC(=O)C[C@H](Cc1ccccc1)NC(=O)[C@@H]1CCCC[C@H]1N)C(C)C	-8.5%

More results
Compound	HPGD block
CCO/C(C)=N/n1c2nc3ccccc3nc2c2c(=O)n(CC(C)C)c(C)nc21	-15.4%
O=C(/C(=C/c1cccc(Cl)c1)c1nc2ccccc2[nH]1)c1ccccc1	-17.6%
CSC1=C(C#N)C(C)CC(=O)N1 (configuration not stated)	-13.7%
CC(C)(C)NC(=O)C(c1ccc(I)cc1)N(CCN1CCOCC1)C(=O)CCCNC(=O)c1ccccc1 (configuration not stated)	-5.0%
C=C1c2ccc(C)cc2NC(=O)N1c1ccccc1	-5.7%
COC(=O)c1ccc(NC(=O)c2ccco2)cc1	-9.2%
CN(C1=C(NC(=O)c2ccccc2)C(=O)c2ccccc2C1=O)C1CCS(=O)(=O)C1 (configuration not stated)	-27.3%
O=C(CSc1nnc(-c2ccco2)n1Cc1ccco1)NCc1cccs1	-9.1%

(continued)
Compound	HPGD block
CSc1nc2ccc(NS(=O)(=O)c3ccccc3F)cc2s1	25.1µM*
Cc1ccc(N(CN2CCCC2=O)C(=O)c2ccc(C)c(C)c2)cc1	-0.9%
O=C(O)CCCC(=O)NS(=O)(=O)c1ccc(Cl)cc1	-7.2%
CCOC(=O)CSC1=C(C#N)C(c2ccccc2Cl)C(C(=O)OC)C(=O)N1 (configuration not stated)	-15.6%
C/C(=N\NC(=S)Nc1c(C)cccc1C)c1ccc(OC(F)F)cc1	-3.8%
O=C1OC(C(=O)O)Cc2ccccc21 (configuration not stated)	-3.0%
O=S(=O)(NCC(c1ccco1)N1CCN(c2ccccc2F)CC1)c1ccccc1 (configuration not stated)	-5.3%
CCOC(=O)Cc1csc(SC(C)C(=O)Nc2ccc(NC(C)=O)cc2)n1 (configuration not stated)	-2.3%

Continuation.
Compound	HPGD block
O=C(N[C@@]1(C(=O)O)C[C@@H]1c1ccccc1)c1ccccc1	-1.6%
Cc1cccn2c(/C=N/OCc3ccc(F)cc3)c(-c3ccc(Cl)cc3)nc12	?
Nc1nonc1-c1noc(N2CCOCC2)n1	-3.4%
Cc1ccc(S(=O)(=O)Nc2ccc3nc(N)sc3c2)cc1	-9.9%
Cc1ccc(/C=N/c2sc3c(c2C#N)CCC3)s1	-21.6%
CN(C)C(=S)NC1(C)CCS(=O)(=O)C1 (configuration not stated)	-9.1%
Cc1ccc2nc(C)cc(N3CCOCC3)c2c1	-17.6%
Cc1ccccc1N1CCN(C(=O)CCN2C(=O)c3ccccc3C2=O)CC1	-5.7%
